Screening results: PubChem, several laboratories
GALR2 ag: GALR2 receptor agonists, primary screen, cell-based. AID 803, 2007. activation, %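 (tested at 5 µM)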. Galanin receptor type 2 (Homo sapiens), O43603. GALR2-expressing cells, agonist activation read-out. 140,000 compounds, 0.48% hits;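 active = above mean plus 3 SD of all compounds, about 5% in these data, not always enough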;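 note: 0% = vehicle buffer wells and 100% = reference agonist at full effect; tested in CHO reporter cells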
INS promoter inh: inhibitors of insulin promoter-driven GFP, primary screen, imaging, TRM-6 cells (human fetal islet line), eGFP reporter, cell count. reporter expression induced with tamoxifen. inhibition, % at 2 µM. 130,000 compounds, 0.9% hits. AID 1273, 2008;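 active = inhibition above the mean plus 3 SD, with well images judged a real hit on visual review, cut at about 60% in these data, passing the limit was not always enough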
PKD1 inh: inhibitors of human PKD1 kinase, biochemical, fluorescence polarization | Serine/threonine-protein kinase D1 (Homo sapiens), Q15139 | 200,000 compounds, 0.056% hits | inhibition, %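 (about 10 µM by stock and volumes)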 | PKD1 kinase fluorescence polarization assay;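 active = inhibition of 50% or more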;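 note: controls were vehicle for no effect and a reference inhibitor for full effect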
Target sequence (Q15139 whole entry, looked up): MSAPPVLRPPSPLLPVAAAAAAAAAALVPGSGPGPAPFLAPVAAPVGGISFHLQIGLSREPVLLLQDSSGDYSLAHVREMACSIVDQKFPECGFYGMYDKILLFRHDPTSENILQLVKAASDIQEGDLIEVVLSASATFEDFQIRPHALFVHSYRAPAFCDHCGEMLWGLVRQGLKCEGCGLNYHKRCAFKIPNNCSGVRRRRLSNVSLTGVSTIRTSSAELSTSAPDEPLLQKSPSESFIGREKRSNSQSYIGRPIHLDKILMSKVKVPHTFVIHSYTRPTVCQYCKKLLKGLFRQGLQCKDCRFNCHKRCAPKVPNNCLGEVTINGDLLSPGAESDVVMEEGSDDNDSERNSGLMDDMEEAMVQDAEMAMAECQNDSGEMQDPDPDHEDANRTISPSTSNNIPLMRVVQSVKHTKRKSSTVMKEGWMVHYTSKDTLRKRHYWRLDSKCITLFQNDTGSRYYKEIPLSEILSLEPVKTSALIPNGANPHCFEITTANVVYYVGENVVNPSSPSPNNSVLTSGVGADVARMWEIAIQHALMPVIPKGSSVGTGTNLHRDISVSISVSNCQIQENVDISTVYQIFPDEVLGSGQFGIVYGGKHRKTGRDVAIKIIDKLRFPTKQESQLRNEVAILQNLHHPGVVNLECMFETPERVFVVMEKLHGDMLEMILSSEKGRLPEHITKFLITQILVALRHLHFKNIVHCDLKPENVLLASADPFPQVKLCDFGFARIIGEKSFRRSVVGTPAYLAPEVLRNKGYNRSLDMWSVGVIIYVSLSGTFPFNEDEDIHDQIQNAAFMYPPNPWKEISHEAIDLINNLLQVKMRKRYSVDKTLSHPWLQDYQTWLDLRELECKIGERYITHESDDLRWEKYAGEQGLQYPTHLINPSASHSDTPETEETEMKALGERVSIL
HSV replic up: enhancers of HSV replication in host cells, fold increase, host cell viability | maximum fold increase | 220,000 compounds, 0.005% hits | HSV replication augmentation in cells;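 active = peak rise of 1.5-fold or more in the series; tested in PC3 cells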;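 note: first round at 10 µM; read as green reporter fluorescence; hits show the peak of a series up to 25 µM; 1 = signal of infected wells without compound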
RGS16-Gao HTS: modulators of RGS16 binding to Galphao, primary screen, biochemical, human proteins, multiplexed bead flow cytometry | bead-based flow cytometry RGS16-Galphao binding, fluorescence; actives lie on both sides | 220,000 compounds, 0.38% hits | AID 1441, 2008 | binding response (% of control), % at 10 µM | Regulator of G-protein signaling 16 (Homo sapiens) + Guanine nucleotide-binding protein …;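 active = below 25% or above 175%, edge rows of some plates excepted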;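 note: Galphao activated by GDP with aluminum fluoride before binding; 100% = wells without compound and 0% = beads without RGS; some results beyond the cut were filed as inactive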
INS promoter inh cell count: also measured in INS promoter inh; calls as there; normalized cell count, %; measured here: cell count, toxicity; reference of the scale not given here;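 cells exposed to compound for 48 h; stained nuclei by imaging scaled within each plate; lower means fewer cells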
HSV replic up primary fold: further read-out of HSV replic up, marked with its call; fold increase; compound at 10 µM; measured here: primary screen fold increase 10 uM; tested in PC3 cells;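 GFP signal in the first replicate; 1 = infected wells without compound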
The depositor's hits bear a star; i = inactive; x = no result given.

SMILES	GALR2 ag	INS promoter inh	INS promoter inh cell count	PKD1 inh	HSV replic up	HSV replic up primary fold	RGS16-Gao HTS
c1ccc(-c2cnnc(SCc3cn4cccnc4n3)n2)cc1	-0.8	19	79	-1	i	0.97	110
CCc1ccc(Nc2ncc3c(n2)CC(C)CC3=O)cc1 (centres undefined)	x	x	x	2	i	0.94	105
Cc1cccc(NC(=O)COc2cccc3c2CCN(C)C3=O)c1C	x	x	x	3	i	1	92
Cc1ccc(S(=O)(=O)Nc2ccc(N3CCOCC3)cc2)cc1	-3.4	-81	95	3	i	1	-64*
O=[N+]([O-])c1cccc(-c2nnc(C34CC5CC(CC(C5)C3)C4)o2)c1	-0.2	x	x	3	i	0.82	98
CO/N=C/c1ccc(Sc2ccccc2N)c([N+](=O)[O-])c1	-0.4	-2	138	-2	i	0.89	119
CCCCOC(=O)N1CCOCCOCCN(C(=O)OCCCC)CCOCCOCC1	-0.9	x	x	4	i	1	93
CCN1C(=O)C(O)(CC(=O)c2cccc(-n3cccc3)c2)c2ccccc21 (centres undefined)	x	x	x	-1	i	0.87	108
Cc1cc(C)c2nc(N3CCC(C(=O)NCc4ccccn4)CC3)sc2c1	x	50	88	2	i	1.1	99
CCOC(=O)c1ccccc1NC(=O)CC(C)CC(=O)O (centres undefined)	-5.7	29	61	0	i	0.94	103
COC(=O)C1=C(N)Oc2cc(C)[nH]c(=O)c2C1c1ccncc1 (centres undefined)	0.5	-17	104	-10	i	1.1	99
COc1cccc(C(=O)Nc2ccccc2F)c1	x	x	x	-3	i	1.1	110
CC(C)(C)CC(=O)Nc1ccc(S(=O)(=O)N2CCCC2)cc1	x	-17	76	0	i	1	100
COc1ccc(Cl)cc1CN1CCOCC1	x	x	x	x	i	0.97	106
O=C(COC(=O)c1cc(=O)[nH]c(=O)[nH]1)Nc1cccc(S(=O)(=O)N2CCCCC2)c1	x	10	141	2	i	0.97	100
O=C(OCC#CCSc1nnc(-c2ccc(Br)cc2)o1)c1ccco1	-1.6	x	x	-4	i	0.94	101
CCS(=O)(=O)Nc1c(C(=O)O)[nH]c2ccccc12	-0.7	67	109	-4	i	0.87	113
Oc1ccc(C(=S)N2CCCCCC2)cc1	-2.5	-5	119	-12	i	0.76	98
Cc1ccc(S(=O)(=O)Cn2nnnc2C(c2ccc(F)cc2)N2CCCCC2)cc1 (centres undefined)	-2.0	12	106	-5	i	1.1	103
COCCNC(=O)/C(C#N)=C/c1cn(CC(=O)NCc2ccco2)c2ccccc12	x	x	x	9	i	0.88	102
Cc1ccc(CNCc2cccnc2)cc1	-2.4	-7	96	-5	i	1	103
C=CCN(CC=C)CCOc1ccccc1F	1.2	-17	114	-2	i	0.9	113
CCc1ccc2nc(NC(=O)c3ccc4c(=O)[nH]c(CN5CCOCC5)nc4c3)sc2c1	-2.1	x	x	0	i	0.81	105
COc1ccc(-c2nc(CCNC(=O)c3ccco3)cs2)cc1OC	1.0	x	x	-6	i	0.99	102
COc1cc2c(cc1OC)CC(=O)NC=C2	x	56	93	-6	i	1	98
COC(=O)c1cc(CNC(=O)c2cccc(Cl)c2)ccc1OC	-0.3	x	x	-4	i	1.1	96
CCC1C(=NO)C(CC)C(c2ccccc2)NC1c1ccccc1 (centres undefined)	x	x	x	2	i	1.1	105
O=C(CCN1CCN(Cc2ccccc2)CC1)Nc1ccccc1Cl	0.6	3	97	3	i	1	103
O=[n+]1c2c(n([O-])c3cc(Cl)ccc31)CCCC2	0.3	-17	97	0	i	1.1	102
CN(C)Cc1c(O)c(Cl)cc2c3c(c(=O)oc12)CCCC3	2.2	-14	125	-1	i	1	206
CC(C)N(Cc1nc(-c2ccccc2)no1)C(=O)COc1ccccc1	-2.2	x	x	-5	i	0.95	105
CC(C)c1ccc(-c2nc(N3CCOCC3)[nH]c(=O)c2C#N)cc1	-0.5	-21	48	-3	i	0.87	99
Cn1c(=NC(=O)c2cccc([N+](=O)[O-])c2)sc2ccccc21	x	-27	55	-1	i	0.77	100
CCCN1C(=O)/C(=C/c2ccc(C)s2)NC1=S	-0.6	60	150	6	i	0.86	113
Cc1cccc(NC(=O)CN2NS(=O)(=O)c3ccccc3C2=O)c1	-3.5	-3	49	5	i	0.74	105
O=C(NC(Cc1ccccc1)C(=O)NC1CC1)OCc1ccccc1 (centres undefined)	x	x	x	10	i	0.93	104
Cc1ccc(-n2nnnc2SCC(=O)NNC(=O)c2ccc([N+](=O)[O-])cc2)cc1	x	x	x	1	i	1.1	102
COc1ccc(N(CC(=O)N2CCCCC2)S(=O)(=O)c2ccccc2)c(OC)c1	1.5	0	80	1	i	0.75	121
CN(Cc1ccc(OCC(O)CN2CCCCC2)cc1)Cc1ccnc2ccccc12 (centres undefined)	x	x	x	3	i	0.96	93
Clc1ccc(OCCN2CCCCC2)c(Cl)c1	-3.0	-35	84	-4	i	0.93	104
Cc1ccc(NC(=O)COC(=O)c2ccccc2Nc2ccccc2)cc1	-0.3	14	89	-11	i	1	128
Cn1cccc1Cc1nnc(SCC(=O)Nc2ccc3c(c2)OCO3)n1-c1ccc(F)cc1	-0.4	x	x	-2	i	1.2	101
CCC(C)[C@H](NC(=O)NCc1ccco1)C(=O)OC (some centres undefined)	x	x	x	x	i	0.96	104
CCOC(=O)c1c(NC(=O)CC2Nc3ccccc3NC2=O)sc(C)c1C (centres undefined)	0.1	3	120	-2	i	0.88	100
O=C(O)c1ccccc1CSC1=NCCS1	x	0	111	-2	i	0.94	94
CCc1cc2ccccc2nc1Cl	x	x	x	-6	i	0.87	89
CNC(=O)N(O)C1N(/N=C/c2cccs2)C(=S)SC1(C)C (centres undefined)	x	x	x	x	i	1.1	100
O=C(O)C1C2C=CC(C2)C1C(=O)Nc1nccs1 (centres undefined)	-2.0	1	111	-3	i	0.89	103
Cc1cc(C)nc(SCCC(=O)N2CCOCC2)n1	-2.8	25	101	1	i	0.87	99
CCCCCOc1ccc(N2C(=O)CC(N(O)c3ccccc3)C2=O)cc1 (centres undefined)	-4.9	-73	79	1	i	0.66	101

The results go on.
SMILES	GALR2 ag	INS promoter inh	INS promoter inh cell count	PKD1 inh	HSV replic up	HSV replic up primary fold	RGS16-Gao HTS
CC(NC(=O)c1ccccc1)c1nc2ccccc2n1Cc1ccccc1F (centres undefined)	-1.3	-36	121	6	x	x	81
CC12CN3CC(C)(CN(C1)C3c1ccc(Br)cc1O)C2 (centres undefined)	-0.7	21	142	-3	i	0.94	95
O=P(COCCOCP(=O)(c1ccccc1)c1ccccc1)(c1ccccc1)c1ccccc1	-0.5	-79	77	-8	i	0.94	122
CCOC(=O)c1cnc(Nc2nc3ccccc3o2)nc1CSc1nnc(C)s1	-3.6	23	146	-4	i	0.89	x
Cc1cc(NC(=O)CN2C(=O)/C(=C/c3cccc(Br)c3)SC2=S)no1	x	36	117	-4	i	0.83	122
CC(C)=CC(=O)OCC(=O)Nc1cccc([N+](=O)[O-])c1	-1.3	9	151	-7	i	0.88	91
Cc1c(Nc2ccc3nonc3c2[N+](=O)[O-])c(=O)n(-c2ccccc2)n1C	x	-12	118	3	i	0.75	94
CC(C(=O)NCCC1=CCCCC1)c1ccc([N+](=O)[O-])cc1 (centres undefined)	x	x	x	4	i	1	98
CN1C(C(=O)NCC2CC2)CC2Cn3c(nc4cc(Cl)c(Cl)cc43)C21 (centres undefined)	x	x	x	x	i	0.95	96
Cc1nc(NC(=S)NC(=O)c2ccccc2)sc1C	x	x	x	x	i	0.92	96
CCOC(=O)C1(CCCc2ccccc2)CCN(Cc2nccn2CC)CC1	x	x	x	6	i	0.91	94
CCOc1ccccc1C(=O)NC1CC2CCCC(C1)N2Cc1ccccc1 (centres undefined)	-1.7	52	112	-5	i	0.88	101
COc1ccc(CCNC(=O)CSCc2c(F)cccc2Cl)cc1OC	x	x	x	3	i	0.99	99
CCOC(=O)C(C)Oc1cccc2c(=O)n(CC(=O)N3CCN(C(=O)OCC)CC3)ccc12 (centres undefined)	-2.5	x	x	3	i	1.2	103
CCN(CC)CC#CCOC(c1ccccc1)c1ccccc1	x	7	125	6	i	1	104
Cc1cc(NC(=O)CCC(=O)N(CC(=O)NC2CCCC2)Cc2cccs2)no1	x	-106	132	-2	i	1	100
CCC1(C)Cc2ccccc2-c2nc(NCCCO)[nH]c(=O)c21 (centres undefined)	x	x	x	x	i	0.97	86
Cc1nc(-c2cccc(NC(=O)c3cc4cc(Br)ccc4oc3=O)c2)cs1	0.1	23	115	7	i	1.1	82
COC(=O)CC(c1ccc(F)cc1)n1c(C)ccc1C (centres undefined)	x	x	x	-6	i	0.84	102
Clc1ccc(N/N=C/c2cccnc2)cc1	-1.9	x	x	5	i	0.99	102
O=C(O)CCCCCNS(=O)(=O)/C=C/c1ccccc1	x	x	x	-4	i	1	98
O=C(N/C=C/c1ccco1)Nc1cccc(Cl)c1	x	x	x	x	i	1.2	96
COc1ccc(S(=O)(=O)N2CCOC2CNC(=O)C(=O)NCCCn2ccnc2)cc1OC (centres undefined)	0.0	24	129	-6	i	1.1	x
COc1ccc(S(=O)(=O)Nc2ccccc2C(=O)NC(C)C)cc1OC	0.5	-27	93	-8	i	1	95
COc1ccc(N2CCN(c3ccc(NC(=O)C4CCCCC4)cc3C#N)CC2)cc1	-1.7	-490	86	-6	i	0.86	99
Cc1sc(=NC(=O)c2ccco2)n(C)c1-c1ccc(F)cc1	-0.3	-33	126	-4	i	1	105
Cc1cc(C)cc(NC(=O)CCCSc2nc3ccccc3[nH]2)c1	-0.4	-38	163	6	i	0.98	107
CCS(=O)(=O)N1CCCC(C(=O)NCCc2ccccc2)C1 (centres undefined)	-3.2	6	94	-5	i	0.7	102
O=C(Cn1cc[n+](Cc2ccccc2)c1)c1ccc([N+](=O)[O-])cc1	x	0	20	-6	i	0.95	112
COc1ccc(N(C)S(=O)(=O)c2cccc(C(=O)NC3CCC(C)CC3)c2)cc1 (centres undefined)	x	x	x	4	i	0.91	101
Cn1c(C(=O)OC(C(=O)NC2CCCC2)c2cccnc2)cc2sccc21 (centres undefined)	0.1	11	63	-1	i	0.81	95
COCCNC(=O)CC(c1ccccc1)c1ccccc1	-1.4	13	109	-1	i	0.99	69
CCN(C(=O)c1cc2cc(OC)ccc2oc1=O)c1ccccc1	-0.4	-47	64	-10	i	1.1	96
COc1ccc(N(CC(=O)NCc2ccccc2OC)S(=O)(=O)c2c(C)nn(C)c2C)cc1	-3.6	x	x	-8	i	0.93	103
Cc1ccc(C(=O)N2CCN(c3ccc([N+](=O)[O-])c(NCc4cccnc4)c3)CC2)cc1	0.2	x	x	0	i	1.1	112
O=C(O)CSc1nc2ccccc2o1	0.6	6	109	-3	i	0.76	101
O=C(Cn1nnc(-c2ccccc2Cl)n1)NCc1ccc2c(c1)OCO2	-1.5	x	x	1	i	0.94	103
Cc1cc(=O)n2nc(N3CCC(C(=O)N4CCN(C)CC4)CC3)sc2n1	-1.6	-8	106	-16	i	1.1	93
CNC(=O)c1c(NC(NC(=O)c2ccco2)C(=O)c2ccc(Cl)cc2)sc2c1CCCC2 (centres undefined)	-0.8	-3	76	-1	i	0.87	93
